T cruzi inh = inhibitors of intracellular T. cruzi growth, primary screen, luminescence, NIH3T3 host cells; T. cruzi beta-gal in NIH3T3, 90 h; inhibition, % (test concentration not listed); 300,000 tested, 1.4% active; AID 1885, 2009;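 active = mean inhibition across valid replicates above about 55%, limit read from the data; inconclusive = mean below that limit but half or more replicates reach it; inactive = mean below it, under half of replicates reach it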;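 also: signal also drops with host cell toxicity which is not excluded here; 0% = plate median of DMSO wells and 100% = zero luminescence signal; higher percent means less beta-gal luminescence so fewer parasites; stock transfer was 50 nL into about 50 µL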
Calb FLC = C. albicans growth inhibition with fluconazole, primary screen, CaCi-2 strain, Alamar Blue fluorescence; AID 1979, 2009; C. albicans CaCi-2 (fluconazole-resistant clinical isolate) + fluconazole, 48 h; growth inhibition, % (concentration not given with the values); 300,000 tested, 0.57% active;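 active = most replicates above 75%; inconclusive = exactly half above 75%; inactive = most below 75%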;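 also: all wells also contain fluconazole at 8 µg/ml as a sub-toxic cotreatment; 0% = median of DMSO wells and 100% = median of geldanamycin control wells; wells of about 8 µL received 7.5 nL stock; the first replicate is given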
RanGTP-Imp inh = inhibitors of RanGTP-importin-beta interaction, primary screen, biochemical, FRET, CFP-Ran, YFP-importin-beta, homogeneous; Ran GTPase (GTP-bound) - importin-beta complex; cell-free CFP-Ran/YFP-importin-beta FRET ratio; inhibition, % (no concentration beside the values); 300,000 tested, 1.1% active;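 active = most replicates above 15%; inconclusive = exactly half above 15%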;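 also: 0% = DMSO wells and 100% = Ran loaded with GDP instead of GTP; wells of about 40 µL received 100 nL stock; the first replicate is given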
Beta cell apopt = inhibitors of cytokine-induced beta cell apoptosis, primary screen, luminescence; INS-1E cytokine-induced death, ATP luminescence, 48 h; percent of positive-control rescue, neutral wells zero; AID 435005, 2010; protection from apoptosis, % (test concentration not listed); 300,000 tested, 0.8% active;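 active = all replicates at 75% or more, or half of them and the mean; inconclusive = half reach 75% but not the mean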;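 also: 0% = cytokine-treated negative control wells and 100% = positive control rescue; higher means more ATP so stronger rescue from cytokine killing; wells of about 40 µL received 100 nL stock; the first replicate is given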
B2AR ag = beta2AR agonists driving receptor internalization, primary screen, cell-based, FAP fluorogen, flow cytometry; response, % (test concentration not listed); AID 504454, 2011; 340,000 tested, 0.43% active; Am2.2-beta2AR cells; reference of the scale not given here;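 active = response above a set limit, near 3 SD of response in nonfluorescent compounds, cut at about 42% in these data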;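 also: stock transfer was 100 nL into about 11 µL; a reference agonist was the positive control; negative values mostly stem from fluorescent compounds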
LANA-H2B inh = blockers of LANA interaction with H2A/H2B – biochemical, FP readout, HTS, primary screen; Protein LANA1 (Human herpesvirus 8 type P (isolate GK18)), Q9QR71; cell-free LANA-H2A/H2B peptide, fluorescence polarization; inhibition, % (test concentration not listed); 320,000 tested, 0.6% active; in the data active = inhibition mostly above about 10%, no sharp cut-off; inactive = mostly below about 6.7%;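 also: stock transfer was 7.5 nL into about 10 µL; 0% = median of vehicle wells and 100% = median of positive control wells; one replicate is shown; the record names a cut of 25% in any replicate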
Target sequence (Q9QR71 whole entry, looked up): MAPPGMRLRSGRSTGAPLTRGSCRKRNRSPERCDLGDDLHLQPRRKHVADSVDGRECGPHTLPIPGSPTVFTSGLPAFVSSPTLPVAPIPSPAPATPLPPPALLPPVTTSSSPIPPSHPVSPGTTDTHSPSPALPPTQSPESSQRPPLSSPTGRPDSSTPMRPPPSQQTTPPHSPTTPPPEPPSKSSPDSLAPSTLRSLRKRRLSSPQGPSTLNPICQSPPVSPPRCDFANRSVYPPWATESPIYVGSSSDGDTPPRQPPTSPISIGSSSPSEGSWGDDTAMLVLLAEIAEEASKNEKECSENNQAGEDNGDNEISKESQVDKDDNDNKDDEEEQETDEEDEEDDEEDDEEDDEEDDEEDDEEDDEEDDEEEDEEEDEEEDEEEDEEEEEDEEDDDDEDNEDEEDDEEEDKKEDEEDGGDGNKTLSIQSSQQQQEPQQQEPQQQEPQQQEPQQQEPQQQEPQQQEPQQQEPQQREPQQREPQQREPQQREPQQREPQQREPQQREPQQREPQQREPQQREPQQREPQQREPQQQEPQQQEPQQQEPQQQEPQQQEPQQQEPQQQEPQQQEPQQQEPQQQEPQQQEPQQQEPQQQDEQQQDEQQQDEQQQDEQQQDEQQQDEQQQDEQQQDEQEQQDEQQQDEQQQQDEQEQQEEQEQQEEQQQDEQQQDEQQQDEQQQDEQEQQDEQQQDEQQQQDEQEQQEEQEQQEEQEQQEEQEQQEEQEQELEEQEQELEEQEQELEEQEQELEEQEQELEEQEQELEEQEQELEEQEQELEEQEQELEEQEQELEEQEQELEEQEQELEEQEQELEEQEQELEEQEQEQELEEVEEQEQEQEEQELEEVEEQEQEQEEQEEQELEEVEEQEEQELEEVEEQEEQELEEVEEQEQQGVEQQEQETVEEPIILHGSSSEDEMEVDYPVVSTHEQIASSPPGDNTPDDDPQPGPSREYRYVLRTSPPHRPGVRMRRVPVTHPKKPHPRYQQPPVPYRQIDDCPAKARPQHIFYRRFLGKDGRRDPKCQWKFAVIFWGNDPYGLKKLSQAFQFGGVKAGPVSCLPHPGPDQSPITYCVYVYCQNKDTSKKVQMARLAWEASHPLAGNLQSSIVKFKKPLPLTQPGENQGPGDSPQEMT
A1 inh = caspase 3/7 activation in MEF A1-2A-BIM cells, primary screen, A1 inhibitor project, cell-based, luminescence, HTS; Caspase-Glo 3/7 luminescence, 3 h; percent of clofoctol response, vehicle zero; caspase activation, % (concentration not given with the values); 330,000 tested, 0.066% active;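 active = over half of replicate activation scores above 10%, or exactly half above 10 with the replicate mean above 10; inconclusive = replicate mean below 10 yet half the replicates above 10; inactive = over half of replicates below 10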;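 also: wells of about 30 µL received 50 nL stock; many hits fall short of the cut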
UCH37 inh = inhibitors of human UCH37 deubiquitinase, primary screen, biochemical, Ub-AMC cleavage, fluorescence; purified proteasome/UCH37; inhibition, % (test concentration not listed); 330,000 tested, 0.33% active;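 active = mean of two replicates above 20%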;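 also: 0% = compound-free wells with enzyme and 100% = wells lacking proteasome; stock transfer was 100 nL into about 20 µL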
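Assay system: Proteasome-bound UCH37. Buffer or medium: pH 7.4 Tris-HCl (50 mM) with ovalbumin, ATP-MgCl2, DTT. Incubation: 30 min preincubation with enzyme, 25 min cleavage at room temperature. Measured by: fluorescence, ex 355 nm, em 460 nm. Read-out basis: percent inhibition. Control set: wells without proteasome as full block, compound-free enzyme plus substrate as uninhibited.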
The depositor's hits bear a star; i = inactive; ? = inconclusive; . = not tested or not shown.

SMILES | T cruzi inh | Calb FLC | RanGTP-Imp inh | Beta cell apopt | B2AR ag | LANA-H2B inh | A1 inh | UCH37 inh
CCCCCCCCCCCCn1ccc(=N)cc1 | 58.9* | ? | -0.8 | 117.2* | 7.5 | -0.1 | 1.4 | 29.5*
CCn1c(O)c(C=Nc2ccc(N3CCOCC3)c(Br)c2)c(=O)n(CC)c1=S | -11.3 | -5.9 | 2.3 | -4.2 | 5.7 | 2.3 | -0.4 | -27.1
CCCc1nc2ccccc2c(=O)n1-c1ccc(O)cc1 | 18.0 | ? | ? | -3.7 | -14.2 | -5.3 | 0.4 | 2.4
CC1C(c2cccs2)=[N+]([O-])C(C)(C(=O)c2cccs2)N1O (configuration not stated) | -3.2 | 2.7 | 1.8 | . | -3.5 | -4.4 | 1.3 | 6.5
CCOP(=O)(OCC)C(NC(=O)c1ccc(OC)cc1)C(Cl)(Cl)Cl (configuration not stated) | -23.0 | 5.4 | 1.7 | 2.1 | -0.7 | -2.6 | 1.3 | 5.4
Cc1cc(=O)oc2cc(OCC(=O)N3CCN(C(C)c4ccccc4)CC3)c(Cl)cc12 (configuration not stated) | . | . | . | 0.5 | 3.3 | 2.6 | -0.3 | i
C/C=C1/CN2[C@@H]3C4CO[C@@H]3c3c([nH]c5cc(OC)ccc35)[C@@H]2CC14 (some centres not stated) | -6.0 | -1.5 | 4.5 | -8.8 | -1.7 | 2.1 | -0.1 | 0.7
Cc1ccnc(-n2c(C)nc3ccccc3c2=O)c1 | -20.8 | 3.9 | 2.4 | -2.9 | -1.5 | -6.2 | 0.0 | 1.8
COCCCNC(=O)c1c(NC(=O)c2ccccc2Cl)n(Cc2ccccc2)c2nc3ccccc3nc12 | -1.3 | 10.6 | 71.4* | 6.6 | 8.2 | -3.1 | 0.2 | -306.7
CC1CN(CCc2ccccc2)CC(C)O1 (configuration not stated) | 13.4 | -5.7 | 9.6 | -7.5 | . | 0.6 | -3.7 | -1.7
COC(=O)C1=C(c2cc3ccccc3s2)C[C@@H]2CC[C@H]1N2C(=O)NCc1cccc2ccccc12 | 29.3 | 9.9 | -0.8 | 0.4 | 6.8 | -1.7 | -0.6 | -1.4
COC(=O)C1=C(c2cccc(OC)c2OC)C[C@@H]2CC[C@H]1N2C(=O)NC1CCCCC1 | 24.3 | -6.5 | 0.1 | -3.5 | 4.5 | -3.1 | 0.2 | -0.7
CC1=C(C(=O)OC(C)C)[C@]2(C(=O)N(CC(N)=O)c3ccccc32)C(C#N)=C(N)O1 | -3.5 | 3.0 | -1.7 | . | -0.5 | -0.3 | -0.2 | 2.6
C[C@]12CC[C@H]3[C@@H](CCC4=CC(=O)CC[C@@]43O)[C@@H]1CCC2=O | -2.7 | -12.0 | -1.2 | 1.7 | -6.0 | -3.4 | 0.3 | 2.0
O=c1[nH]c(=O)n(CCc2ccc(F)cc2)c(O)c1C=NCCCn1ccnc1 | -5.7 | 2.4 | -2.5 | -3.7 | -1.5 | 3.5 | -0.3 | 26.0*
O=C1OC(c2ccc(Cl)cc2)=N/C1=C\N1CC2CC(C1)c1cccc(=O)n1C2 (configuration not stated) | 2.9 | -9.1 | -0.4 | 4.2 | 6.4 | 5.4 | 0.2 | 11.6
Cc1ccc(/C=C2/C(=O)NC(=O)N(CCc3ccc(F)cc3)C2=O)o1 | -4.4 | -9.5 | 4.9 | -5.2 | 36.7 | -6.5 | 0.6 | 2.4
CC(=O)c1ccc(OCC(=O)N2CCCC(N3CCN(c4ccccc4C)CC3)C2)cc1 (configuration not stated) | 15.0 | -6.1 | -4.1 | 0.4 | 2.9 | -0.7 | -0.1 | 1.2
C=C1CC[C@@]2(O)[C@H]3Cc4ccc(O)c5c4[C@@]2(CCN3CC2CC2)[C@H]1O5 | 8.2 | . | -2.4 | -3.1 | . | -18.0 | 0.2 | 0.1
COc1ccc(S(=O)(=O)NC(CC(=O)N2CCC3(CC2)OCCO3)C(C)C)cc1 (configuration not stated) | -8.2 | -40.4 | 0.7 | . | -7.8 | 1.2 | 0.7 | 1.2
CC(Cc1ccccc1)NCc1ccccc1O (configuration not stated) | 3.8 | 0.2 | 3.5 | -1.2 | 7.7 | 1.6 | 3.0 | 2.2
COC(=O)C1C(O)C(C)C(O)C(C)/C=C\C=C(/C)C(=O)Nc2c(C)c(OC(C)=O)c3c(c2O)C(=O)C(C)=C2OCOC(=C23)/C(C)=C/C(C)(O)C(O)C(C)C1O (configuration not stated) | -15.3 | 14.6 | -1.3 | -3.4 | 3.9 | -2.9 | 0.7 | .
COc1cc(C(=O)Nc2ccc(Br)cc2C(=O)c2ccccc2Cl)cc(OC)c1OC | 5.6 | 0.7 | -1.8 | 2.1 | -5.7 | 4.4 | -0.1 | 2.1
O=C(COc1ccccc1)Nc1ccc(Cl)cc1C(=O)c1ccccc1 | 16.6 | 3.7 | -2.9 | -1.4 | -8.2 | -4.0 | 0.1 | 0.5
COC(=O)C1=C(c2ccccc2)C[C@@H]2CC[C@H]1N2C(=O)N1CCCC1 | 4.3 | -3.0 | -0.3 | -1.1 | -10.8 | -0.6 | -0.5 | 4.1
O=C1/C(=C/c2cccc([N+](=O)[O-])c2)N2CCC1CC2 | -11.8 | -5.1 | -1.3 | -1.4 | -12.3 | -6.6 | 1.5 | 4.7
N[C@@H](Cc1cc(Br)c(O)c(Br)c1)C(=O)O | -8.5 | -0.9 | -3.6 | -7.0 | . | -2.8 | -0.8 | 0.7
CC[N+](CC)(CC#CCO)CC#Cc1ccccc1 | -9.4 | -9.2 | 0.3 | -2.1 | 5.0 | -1.2 | 0.7 | 2.4
CN(C)c1ccc(NC(=O)CN2C(=O)CN=C(c3ccccc3)c3cc(Cl)ccc32)cc1 | 0.1 | -12.5 | -3.3 | -2.9 | -4.8 | -1.1 | -0.2 | 6.3
Cc1cc(OC(C)C(=O)NCC(O)c2ccccc2)c2c3c(c(=O)oc2c1)CCC3 (configuration not stated) | 14.2 | 0.5 | 7.8 | -2.4 | 5.4 | -0.2 | -0.3 | -188.6
C#CC[N+]1(C)[C@@H]2CC[C@H]1CC(OC(=O)C(CO)c1ccccc1)C2 (some centres not stated) | -4.2 | -3.9 | 0.0 | -6.5 | -1.5 | -1.2 | 0.1 | 6.4
COc1cccc(N=Cc2c(O)n(Cc3ccco3)c(=O)[nH]c2=O)c1 | -15.0 | 2.6 | -0.4 | -9.4 | 0.5 | -5.9 | -0.6 | -201.1
O=c1c2ccccc2nc(CSc2ncnc3nc[nH]c23)n1-c1ccccc1Cl | 0.8 | . | -0.6 | -0.2 | -35.7 | -16.1 | -1.1 | 1.5
CC(=O)O[C@H]1C[C@@H]2CC[C@@H]3[C@H](CC[C@]4(C)C(=O)CC[C@@H]34)[C@@]2(C)C[C@@H]1OC(C)=O | . | . | . | 0.2 | 1.3 | -2.9 | 0.6 | 0.2
CCCNC(=O)N1[C@H]2CC[C@@H]1C(C(=O)OC)=C(c1ccc(-c3ccccc3)c(F)c1)C2 | . | . | . | 10.8 | -3.5 | 2.6 | 0.1 | 6.9
CCc1c(C)nc(N)nc1N1N=C1SCC(=O)OC | -7.4 | 20.8 | 2.7 | -2.4 | -0.6 | -1.2 | 0.6 | 0.3
CCOc1ccc(C(=O)OC2CC3CCC(C2)N3C)cc1 (configuration not stated) | 50.1 | 2.0 | 1.1 | 0.5 | 0.8 | 5.1 | 0.2 | .
Cc1ccc(C)c(NC(=O)CCNC(=O)N2C[C@H]3C[C@@H](C2)c2cccc(=O)n2C3)c1 | -9.5 | -0.2 | ? | . | 5.7 | -2.4 | 0.1 | 3.8
C=C1C(=O)[C@@]23C[C@H]4[C@@H]5[C@@]6(C)CCC[C@@]57[C@@H]2[C@@H](O)[C@@H]1C[C@H]3[C@H]7N4C6 | 47.9 | -8.0 | -2.1 | -11.2 | 7.1 | 7.7 | 1.9 | 6.8
O=P(O)(O)Oc1ccccc1P(=O)(c1ccccc1)c1ccccc1 | -3.0 | 0.3 | ? | -4.4 | 0.4 | -3.2 | -1.7 | 0.1
COC(=O)c1ccc(NC(=O)CSc2nc3ccc(N4C(=O)C5C6C=CC(C6)C5C4=O)cc3s2)cc1 (configuration not stated) | 5.8 | -47.5 | -17.4 | 5.2 | 23.5 | -7.3 | -0.1 | -1.8
CCCCc1cc(=O)oc2cc(OCC(=O)N3C[C@H]4C[C@@H](C3)c3cccc(=O)n3C4)c(Cl)cc12 | -9.0 | 3.1 | 1.2 | -1.0 | -18.7 | -6.3 | 0.4 | -2.9
NCCCN1CCN(c2ccccc2)CC1 | 17.7 | -1.0 | ? | -10.3 | 2.4 | -4.0 | 0.3 | 0.6
COc1ccccc1N1CCN(C(CNC(=O)Oc2ccccc2)c2cccnc2)CC1 (configuration not stated) | 61.2* | 0.9 | 4.6 | 1.7 | -4.5 | 3.5 | 0.0 | 4.2
COc1cc2c(cc1C=O)OCO2 | 3.2 | -0.6 | 1.0 | -5.6 | 4.9 | -4.4 | 0.1 | -6.9
COc1cc(OC)c2c(c1)OCC1CON(C)C21 (configuration not stated) | -7.8 | 2.1 | 7.1 | 1.4 | 8.0 | 0.6 | -0.1 | 0.3
COc1ccc(NC(=O)c2cn(CCC#N)nc2-c2ccccc2)cc1 | -1.9 | -2.8 | -0.4 | -6.1 | -0.9 | 2.3 | 0.5 | 1.4
CC[C@@H]1C=CC=CC[C@H](C)[C@@H](O)[C@@H](C)C(=O)[C@H](C)[C@@H](O)[C@H](C)C(=O)[C@H](C)[C@@H](O)[C@H](C)C=CC(=O)O[C@H]2[C@@H](C)[C@@H](CC1)O[C@@]1(CC[C@@H](C)[C@@H](C[C@H](C)O)O1)[C@@H]2C | ? | . | 0.0 | 0.8 | . | -1.6 | 0.8 | .
COc1ccc(CCn2c(O)c(/C=N/N3CCCCC3)c(=O)[nH]c2=O)cc1OC | -2.9 | -11.0 | -0.2 | -3.3 | -4.0 | -0.9 | -0.7 | 6.3
Cc1nc2ccsc2c(=O)n1-c1ccccc1Cl | -19.1 | -4.9 | -2.8 | . | 3.0 | 4.5 | -0.2 | 3.1
O=C(c1c[nH]c2ccc(S(=O)(=O)N3CCOCC3)cc2c1=O)N1CCC2(CC1)OCCO2 | -0.9 | -6.5 | -0.9 | 6.8 | 7.5 | -0.4 | 0.0 | -56.1
CCCCc1ncc(CN2CCCC(C(=O)c3ccc(SC)cc3)C2)[nH]1 (configuration not stated) | 52.6 | -6.1 | 0.2 | 51.1 | -3.5 | -0.6 | -0.6 | 6.2
COc1ccc2[nH]c(C)c(CCNCc3cccnc3)c2c1 | . | . | . | -2.8 | 7.6 | 4.0 | -0.3 | 1.4
Cc1ccc(-n2c(O)c(/C=N/N3CCOCC3)c(=O)[nH]c2=S)cc1 | -8.6 | -3.0 | 0.2 | -0.7 | -5.0 | -0.5 | 1.0 | 11.7
Cn1c(C(=O)N2CCC3(CC2)OCCO3)cc2c(=O)n(C)c3ccccc3c21 | 4.8 | -7.1 | -1.2 | -4.6 | 1.7 | 3.9 | -0.3 | 1.5

From PubChem

Not all compounds are listed; rates above refer to the full screens.
